Assay outcomes deposited in PubChem by several laboratories.
FGF22 binding: FGF22 (human) thermal shift binding | Q9HCT0 | recombinant FGF22 thermal shift, SYPRO orange fluorescence; percent of sucrose octasulfate shift, DMSO zero | calls only at 9.99 µM | actives 1.5% (n = 340,000) | AID 651658;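 active means melting point raised past a set limit in the mean and every replicate; three in four hits are not shown here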
Target sequence (Q9HCT0 whole entry, looked up): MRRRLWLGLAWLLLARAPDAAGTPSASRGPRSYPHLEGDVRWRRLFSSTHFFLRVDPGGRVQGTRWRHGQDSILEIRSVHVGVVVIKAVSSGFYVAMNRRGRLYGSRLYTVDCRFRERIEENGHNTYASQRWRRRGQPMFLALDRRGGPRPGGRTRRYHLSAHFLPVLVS
Ecoli growth: blocks Escherichia coli growth; OD600, 23 h; stronger effect = lower value; OD600 absorbance (test concentration not listed); actives 0.21% (n = 330,000); AID 1053175;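 active means OD600 absorbance below the run mean of sample wells minus 3.6 SD, in any replicate, cut at about 0.56 in these data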;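 further: stock transfer was 300 nL into about 60 µL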
rRNA inh HTS: selective bacterial rRNA inhibition in E. coli. E. coli WT GFP vs humanized-ribosome RFP mutants, fluorescence, 24 h; stronger effect = lower value; DMSO median 0, no signal -100. GFP signal change (wild-type ribosome), % (no concentration beside the values). actives 1.6% (n = 350,000). AID 720706;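 active means significant combined selectivity score with lowered wild-type GFP, culture density cut under 30%, mutant RFP and density less affected; inactive means any of these conditions unmet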; further: one replicate is shown; some compounds called inactive have numbers as strong as hits
UCH37 DUB inh: human UCH37 deubiquitinating enzyme inhibition; Q9Y5K5; purified proteasome/UCH37, Ub-AMC cleavage fluorescence; inhibition, % (no concentration beside the values); actives 0.33% (n = 330,000); AID 588478;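 active means mean of two replicates above 20%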;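 further: 0% = compound-free wells with enzyme and 100% = wells lacking proteasome; stock transfer was 100 nL into about 20 µL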
Target sequence (Q9Y5K5 whole entry, looked up): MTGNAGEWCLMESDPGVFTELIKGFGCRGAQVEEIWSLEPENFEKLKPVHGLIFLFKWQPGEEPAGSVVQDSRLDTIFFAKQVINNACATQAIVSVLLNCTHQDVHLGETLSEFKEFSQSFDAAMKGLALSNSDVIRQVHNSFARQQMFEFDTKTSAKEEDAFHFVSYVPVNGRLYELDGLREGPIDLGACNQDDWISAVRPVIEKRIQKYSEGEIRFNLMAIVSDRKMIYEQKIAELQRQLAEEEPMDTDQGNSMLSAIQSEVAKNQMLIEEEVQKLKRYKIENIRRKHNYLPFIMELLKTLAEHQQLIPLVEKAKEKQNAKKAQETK
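Signal – fluorescence, ex 355 nm, em 460 nm · System – Proteasome-bound UCH37 · Input – 0.15 nM proteasome as dispensed · Timing – 30 min preincubation with enzyme, 25 min cleavage at room temperature · Read-out basis – percent inhibition of cleavage signal versus uninhibited and no-proteasome wells · Medium – Tris-HCl pH 7.4 with ATP-MgCl2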
Beta2AR agonist: agonists of human beta-2 adrenergic receptor inducing internalization. actives 0.43% (n = 340,000). AID 504454. Am2.2-beta2AR cells, FAP receptor internalization, flow cytometry; reference of the scale not given here. response, % (test concentration not listed);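 active means response above a set limit, near 3 SD of response in nonfluorescent compounds, cut at about 42% in these data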;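 further: stock transfer was 100 nL into about 11 µL; a reference agonist was the positive control; negative values mostly stem from fluorescent compounds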
HNF4A DNA FP: change in binding of human HNF4 alpha to DNA. P41235. HNF4a-FITC DNA binding, fluorescence polarization, 1 h. activity change, % at 10 µM. actives 0.3% (n = 360,000). AID 1224865; in the data active means activity change above about 30%, passing the limit was not always enough;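 further: controls were the assay level and a saturating level of protein; the project sought stronger binding though the title names inhibitors; some compounds called inactive have numbers as strong as hits; positive values seem to mean higher polarization but the record does not say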
ALR H2O2 inh: inhibitors of human sulfhydryl oxidase ALR | P55789 | purified ALR, DTT oxidation, H2O2 HRP-luminol luminescence | inhibition, % (test concentration not listed) | actives 3.8% (n = 290,000) | AID 485317;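 active means mean and each replicate at 75% or more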;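 further: stock transfer was 7.5 nL into about 7.5 µL; 0% = neutral wells and 100% = wells with inactivated enzyme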
Target sequence (P55789 whole entry, looked up): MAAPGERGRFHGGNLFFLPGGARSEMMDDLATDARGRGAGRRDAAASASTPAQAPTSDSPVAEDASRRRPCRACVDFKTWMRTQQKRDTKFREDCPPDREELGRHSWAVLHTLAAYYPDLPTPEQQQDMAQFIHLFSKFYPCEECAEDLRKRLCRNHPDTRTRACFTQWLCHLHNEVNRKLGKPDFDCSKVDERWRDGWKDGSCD
rRNA inh HTS OD600: also measured in rRNA inh HTS; calls as there; OD600 change, %; measured here: OD600 growth;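 optical density of the mix in the first replicate; 0 = DMSO median and -100 = no signal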
rRNA inh HTS RFP: also measured in rRNA inh HTS; calls as there; RFP signal change, %; measured here: RFP humanized mutant strains;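 first replicate; 0 = DMSO median and -100 = no signal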
* marks the source's active call; other numbers are inactive results; i = inactive; / = no result given.

no. | FGF22 binding | HNF4A DNA FP | ALR H2O2 inh | Beta2AR agonist | UCH37 DUB inh | Ecoli growth | rRNA inh HTS | rRNA inh HTS RFP | rRNA inh HTS OD600 | Structure
1 | i | 4.2 | / | / | / | / | 2 | -2.3 | 3 | CN[C@@H](CO)C(=O)NC[C@H]1O[C@@H](n2cnc3c(N)ncnc32)[C@H](O)[C@@H]1O
2 | i | 22 | 87* | -12 | 13 | 0.73 | 14 | 17 | -8 | CCCCCCN1C=CC=C/C1=C/C=C(C#N)C#N
3 | i | 1.1 | -1 | -9 | 4.4 | 0.68 | 17 | 1.6 | 22 | CC(=O)NC1C(OCCOc2ccc(Cl)cc2C)OC(CO)C(O)C1O (stereo unspecified)
4 | i | -0.6 | -3 | 3 | -1.1 | 0.7 | -1 | -0.4 | -4 | CCC(C)(C)NC(=O)CN(C(=O)CCC(=O)Nc1nccs1)c1ccc2c(c1)OCCO2
5 | / | 0.0 | -7 | 11 | 8.7 | 0.75 | / | / | / | O=C(/C=C/c1cccs1)c1ccc(NC(=O)c2cccc(Br)c2)cc1
6 | / | 1.1 | -7 | 0 | -3.7 | 0.73 | / | / | / | CCCn1c(SCC(=O)Nc2nnc(CC)s2)nnc1-c1ccco1
7 | i | -1.6 | 1 | 7 | -0.9 | 0.71 | 3 | -1.4 | 10 | O=C(CSc1nnc2ccccn12)NC(=O)Cc1ccccc1
8 | i | 0.2 | / | -4 | 1.6 | 0.68 | / | / | / | CCCc1ccc(-c2cc(C(=O)NC3=NCCS3)c3ccccc3n2)cc1
9 | i | -7.0 | / | / | / | / | 1 | -6.0 | -13 | Cc1ccccc1-c1n[nH]nc1C1=CC(=O)CC(C)(C)C1
10 | i | 6.3 | -1 | 7 | 4.6 | 0.76 | 0 | 0.3 | -10 | Cc1ccc(C)c(N2CCN(S(=O)(=O)c3ccc4c(c3)C(C)(C)C(=O)N4C)CC2)c1
11 | / | -3.0 | -7 | -6 | 5.7 | 0.67 | / | / | / | O=C(O)C1CCCN1c1ncnc2c1oc1ccccc12 (stereo unspecified)
12 | i | -0.5 | / | 0 | 3.4 | 0.69 | 2 | 1.6 | 3 | CCOC(=O)c1[nH]c2ccccc2c1NC(=S)Nc1cc(C)ccc1C
13 | i | 0.6 | -5 | -6 | -1.3 | 0.74 | 14 | 2.5 | 14 | COc1cccc2c(=O)n(CC(=O)Nc3cccc(F)c3)ccc12
14 | i | 0.1 | -1 | 2 | 4.4 | 0.69 | 3 | -0.1 | 12 | COc1ccc(NC(=O)CN(C)C2CCCCC2)cc1Cl
15 | i | -0.1 | -2 | 6 | 2.4 | 0.66 | 8 | -3.3 | -1 | CCS(=O)(=O)N1CCC(C(=O)Nc2cc([N+](=O)[O-])ccc2C)CC1
16 | i | 0.6 | / | -17 | 0.3 | 0.66 | 0 | 0.8 | -13 | CSc1ccccc1NC(=O)CN(C)C(=O)c1ccc(-n2cccn2)cc1
17 | i | -0.6 | / | / | / | / | 0 | 5.0 | 13 | Cc1onc(-c2ccccc2Cl)c1C(=O)NCc1nnnn1-c1ccc(F)c(F)c1
18 | i | -3.1 | / | 0 | 5.3 | 0.65 | 1 | -1.1 | 10 | CC(=O)c1ccc(N2CCN(C(=O)[C@H](C)NC(=O)c3ccccc3Cl)CC2)cc1
19 | i | 3.1 | 1 | 8 | 4.3 | 0.71 | 27 | 5.8 | 7 | Cc1ccc(C(=O)N/C(=C\c2ccco2)C(=O)N2CCOCC2)cc1C
20 | i | 7.1 | -15 | 16 | 1.8 | 0.67 | -16 | -11 | -19 | COc1cc(-c2noc(C)c2-c2ccc(N(C)C)nc2)cc(OC)c1OC
21 | / | 6.2 | -3 | 2 | -1.9 | 0.71 | / | / | / | O=C1C2ON(c3ccccc3)C(c3cccnc3)C2C(=O)N1c1ccccc1 (stereo unspecified)
22 | / | -0.8 | 26 | -6 | -6.0 | 0.68 | / | / | / | NC(=S)Nc1cc2ccccc2c2ccccc12
23 | / | -1.8 | 2 | -8 | 0.3 | 0.74 | / | / | / | CCC(=O)Nc1nnc(Sc2ccc(N(C)C)cc2)s1
24 | i | 0.0 | -19 | -4 | 2.9 | 0.64 | / | / | / | CCSc1ccc(C(=O)NCC(=O)O)cc1
25 | / | -0.7 | 14 | -9 | 1.3 | 0.67 | / | / | / | O=C1CC(c2ccc(Cl)cc2)CC(O)=C1C=NCc1ccc(Cl)c(Cl)c1 (stereo unspecified)
26 | / | 2.4 | 3 | -18 | / | / | / | / | / | Cc1nc2ccccn2c1C(=O)N/N=C/c1cc(C)n(-c2ccc(Cl)cc2)c1C
27 | i | 0.6 | -4 | 8 | 6.8 | 0.67 | 8 | -2.4 | 3 | COc1cc(NC(=O)Cc2cccs2)c(C(=O)O)cc1OC
28 | i | 6.2 | -6 | -7 | 4.8 | 0.7 | 0 | -0.1 | 1 | COc1ccc(CN(C)C(=O)CCN2C(=O)c3ccccc3C2=O)c(OC)c1OC
29 | i | -0.9 | -1 | 6 | 1.4 | 0.74 | 12 | 4.4 | 2 | CC(C)c1ccc(NC(=O)NC2CCCCC2)cc1
30 | / | 1.0 | 3 | 6 | 0.9 | / | / | / | / | NC(=O)[C@@H]1CCNc2c(I)cc([N+](=O)[O-])cc2C(=O)N[C@@H](CCC(=O)O)C(=O)N[C@@H](CO)C(=O)N1
31 | / | 1.4 | -3 | -10 | -1.5 | 0.71 | / | / | / | Cc1cccc(Cn2c(=O)n(CCCC(=O)NCc3ccco3)c(=O)c3ccccc32)c1
32 | / | -0.5 | 91* | -14 | -9.3 | 0.75 | / | / | / | Cc1cc(C)c2c(N)c(S(=O)(=O)Cc3ccccc3)sc2n1
33 | i | 2.0 | / | -28 | i | 0.64 | 7 | 7.0 | -12 | O=C(CSc1nc2nc(-c3cccs3)cc(C(F)(F)F)c2c(=O)[nH]1)C(F)(F)F
34 | i | 2.1 | / | / | / | / | 3 | -2.4 | 8 | COC(=O)[C@]12CCCCC=C1N(Cc1ccccc1)C(=O)[C@H](CC(=O)NCC13CC4CC(CC(C4)C1)C3)C2
35 | i | 0.5 | / | -4 | 0.0 | 0.69 | -10 | -4.8 | -30 | COCCNC(=S)NN=C1CCCCCC1
36 | / | 4.3 | 67 | 0 | 0.8 | 0.64 | / | / | / | Oc1ccc(-c2[nH]ncc2-c2ccc(Cl)cc2)c(O)c1
37 | i | -2.7 | -8 | 9 | 3.1 | 0.67 | -37* | -11* | -27* | Cc1cc(C(c2ccc(O)cc2)c2cc(C)c(O)cc2C)c(C)cc1O
38 | i | 2.4 | -8 | -6 | 3.2 | 0.7 | -15 | -7.6 | -4 | COc1cccc(-n2nc3c(=O)n(Cc4ccccc4Cl)nc(C)c3c2C)c1
39 | / | 0.4 | 0 | -11 | -2.7 | 0.72 | / | / | / | Cc1ccc2cc(CN(CC3CCCO3)C(=O)NC3CCCCC3)c(=O)[nH]c2c1C (stereo unspecified)
40 | / | 3.2 | 1 | -2 | 6.0 | 0.66 | / | / | / | O=C(CCCCCn1c(=S)[nH]c2cc3c(cc2c1=O)OCO3)N1CCN(C2CCCCC2)CC1
41 | i | 3.7 | 3 | -9 | 1.5 | 0.67 | 4 | 1.2 | 3 | Cn1c(SCc2ccc(Cl)cc2)nnc1C1CC1
42 | / | 3.4 | 98* | 7 | -72 | 0.65 | / | / | / | Cc1ccc2[nH]c(-c3cccc(N)c3)cc2c1
43 | i | 0.6 | / | -16 | -0.2 | 0.64 | -15 | 0.2 | -14 | COc1ccc(NC(=O)c2ccc(NC(=O)c3ccco3)cc2)c(OC)c1
44 | / | 1.0 | -1 | -1 | 2.0 | 0.64 | / | / | / | CCOC(=O)Cn1c(=O)c2c(nc(N3CCOCC3)n2C)n(C)c1=O
45 | / | 9.0 | 0 | -8 | -14 | 0.68 | 14 | 1.3 | 6 | CC(=O)c1ccccc1NC(=O)Cn1c(=O)cnc2ccccc21
46 | i | 2.7 | -5 | -8 | 2.0 | 0.7 | -7 | 0.1 | -1 | CC(C)N(Cc1cnn(C)c1)Cc1nc(-c2ccc(Cl)cc2)no1
47 | i | 1.2 | -10 | 6 | -0.8 | 0.69 | 12 | 1.4 | 8 | CCC(=O)Nc1ccc(C(=O)NNC(=O)c2cc(OC)c(OC)c(OC)c2)cc1
48 | i | -4.1 | -6 | 14 | -32 | 0.68 | -49 | -21 | -62 | N#C/C(=C(/O)c1cc2ccccc2o1)c1nc2ccccc2s1
49 | / | -0.8 | 1 | 0 | 3.2 | 0.69 | / | / | / | CC(NS(=O)(=O)c1ccc(F)cc1)C(=O)NCc1ccncc1 (stereo unspecified)
50 | i | -0.7 | 4 | 7 | 3.7 | 0.69 | 13 | 3.3 | 6 | O=C(COc1ccc(S(=O)(=O)N2CCOCC2)cc1)NCc1ccco1

Arranged by formula weight (ascending): some entries from above
no. | FGF22 binding | HNF4A DNA FP | ALR H2O2 inh | Beta2AR agonist | UCH37 DUB inh | Ecoli growth | rRNA inh HTS | rRNA inh HTS RFP | rRNA inh HTS OD600 | Structure
29 | i | -0.9 | -1 | 6 | 1.4 | 0.74 | 12 | 4.4 | 2 | CC(C)c1ccc(NC(=O)NC2CCCCC2)cc1
48 | i | -4.1 | -6 | 14 | -32 | 0.68 | -49 | -21 | -62 | N#C/C(=C(/O)c1cc2ccccc2o1)c1nc2ccccc2s1
27 | i | 0.6 | -4 | 8 | 6.8 | 0.67 | 8 | -2.4 | 3 | COc1cc(NC(=O)Cc2cccs2)c(C(=O)O)cc1OC
32 | / | -0.5 | 91* | -14 | -9.3 | 0.75 | / | / | / | Cc1cc(C)c2c(N)c(S(=O)(=O)Cc3ccccc3)sc2n1
49 | / | -0.8 | 1 | 0 | 3.2 | 0.69 | / | / | / | CC(NS(=O)(=O)c1ccc(F)cc1)C(=O)NCc1ccncc1 (stereo unspecified)
46 | i | 2.7 | -5 | -8 | 2.0 | 0.7 | -7 | 0.1 | -1 | CC(C)N(Cc1cnn(C)c1)Cc1nc(-c2ccc(Cl)cc2)no1
50 | i | -0.7 | 4 | 7 | 3.7 | 0.69 | 13 | 3.3 | 6 | O=C(COc1ccc(S(=O)(=O)N2CCOCC2)cc1)NCc1ccco1
26 | / | 2.4 | 3 | -18 | / | / | / | / | / | Cc1nc2ccccn2c1C(=O)N/N=C/c1cc(C)n(-c2ccc(Cl)cc2)c1C
33 | i | 2.0 | / | -28 | i | 0.64 | 7 | 7.0 | -12 | O=C(CSc1nc2nc(-c3cccs3)cc(C(F)(F)F)c2c(=O)[nH]1)C(F)(F)F

Continuation:
no. | FGF22 binding | HNF4A DNA FP | ALR H2O2 inh | Beta2AR agonist | UCH37 DUB inh | Ecoli growth | rRNA inh HTS | rRNA inh HTS RFP | rRNA inh HTS OD600 | Structure
51 | / | -2.2 | -7 | 3 | 3.3 | 0.77 | / | / | / | COc1ccc(C2(C(=O)N3CCOCC3)CCOCC2)cc1OC
52 | / | -1.6 | -14 | 2 | 0.6 | 0.65 | / | / | / | Cc1cccc(NC(=O)C2CCN(S(=O)(=O)c3cccs3)CC2)n1
53 | i | 2.8 | -4 | 9 | 1.0 | 0.71 | -3 | 0.9 | -26 | O=c1[nH]c(C2CCN(S(=O)(=O)Cc3ccccc3)CC2)nc2c1nnn2Cc1ccccc1
54 | i | 2.0 | / | 6 | 0.7 | 0.7 | 0 | 0.5 | -10 | CC1CCCN(S(=O)(=O)c2ccc(C(=O)NC(C)c3ccccc3)cc2)C1 (stereo unspecified)
55 | i | -3.7 | 5 | -9 | -0.9 | 0.7 | -11 | -0.1 | -17 | c1ccc2oc(-c3[nH]ncc3CN(Cc3ccncc3)CC3CCCO3)cc2c1 (stereo unspecified)
56 | i | -3.3 | 4 | -4 | 2.7 | 0.7 | 21 | 1.7 | 22 | Cc1c(NC=C(C#N)C#N)c(=O)n(-c2ccccc2)n1C

These rows are one share of the data; rates above refer to the full screens.
